MgrA DNA FP – S. aureus MgrA-DNA binding modulation. fluorescence polarization. 0.13% of 84,000 active. inhibition, %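 (about 10 µg/mL by stock and volumes)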;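 active = above 50% in either of two replicates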;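 note: 0% = protein plus DNA without compound and 100% = DNA alone without protein; higher means less MgrA bound to DNA so lower polarization; one replicate is shown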
Sa helicase inh – blocks Staphylococcus aureus DNA helicase; purified S. aureus helicase, fluorescence unwinding assay; about half of the hits fall short of the stated cut; inhibition, %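 (tested at about 80 µM)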; 0.05% of 120,000 active; AID 485395;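 active = both duplicates at 50% or more, or one of them with a favoured structure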;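 note: 0% = mean of negative control wells and 100% = mean of positive control wells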
Numbers without * were called inactive; . = not tested or not shown. The list is partial. The share of hits here may be higher or lower than overall.

Values run as follows: MgrA DNA FP, Sa helicase inh
1) COc1nncc(-c2cnnc(SC)n2)n1
    -1.1, 8
2) COCCNC(=O)c1cc(Br)cs1
    -1.5, 9
3) O=C(NC1CCSC1=O)c1ccc(Br)cc1 (stereo unspecified)
    -0.8, 4
4) O=C1c2ccccc2C(=O)N1Cc1ccccc1
    3.4, -1
5) NC(=O)C1(N2CCCCC2)CCN(C(=O)c2ccccc2)CC1
    ., -14
6) CCOC(=O)c1ccc(NC(=S)NCCOC23CC4CC(CC(C4)C2)C3)cc1
    0.3, 17
7) COc1ccc(C2CC(=O)C3=C(C2)NC(C)=C(C(=O)OCCOc2ccccc2)C3c2ccc(OC(C)=O)c(OC)c2)cc1 (stereo unspecified)
    1.1, .
8) C=CCSc1ncc(Cl)c(C(=O)NCc2ccc3c(c2)OCO3)n1
    ., 1
9) CCN(CC)S(=O)(=O)c1cccc(-c2nnc(SCc3c(C)noc3C)n2CCc2ccccc2)c1
    ., 12
10) O=C(O)C1c2ccccc2C(=O)N(C2CCCCC2)C12CCCCC2 (stereo unspecified)
    -0.9, .
11) CCOc1ccc(CN(C)CC(=O)c2c(N)n(Cc3ccccc3)c(=O)n(CC)c2=O)cc1OC
    ., -1
12) CCc1ccc(-c2ccc(OC(=O)c3c(Br)cc(C(F)(F)F)cc3[N+](=O)[O-])cc2)cc1
    -2.8, .
13) Cc1nnc(SCC(=O)N(C)C2CCCCC2)n1C
    ., 19
14) O=C(O)CC1SC(c2ccc3c(c2)OCO3)=NC1=O (stereo unspecified)
    19, .
15) N#Cc1cccc(NC(=O)Nc2ccc3c(c2)OCC(=O)N3Cc2ccccc2)c1
    1.6, 0
16) O=C(O)CC(CC(=O)Nc1ccc(Oc2ccccc2)cc1)c1ccccc1 (stereo unspecified)
    -1.4, .
17) CCn1c(=O)[nH]c(=O)c2c(N)c(C(=O)c3ccccc3OC)sc21
    ., -3
18) CCN1CCN(c2ncnc3c2c(-c2ccccc2)cn3-c2ccc(Cl)cc2)CC1
    -1.8, 12
19) Nc1ccc(C(=O)N/N=C2\CCCc3ccccc32)cc1
    ., -8
20) CC(C)C(=O)N1c2ccccc2C(Nc2ccccc2)CC1C (stereo unspecified)
    ., -23
21) CC1CCCC(N(Cc2ccco2)C(=O)NCc2noc3ccccc23)C1C (stereo unspecified)
    0.8, 3
22) CC1(C)Oc2ccc3ccc(=O)oc3c2C(/C=N/O)=C1Cl
    ., 12
23) CCOC(=O)c1ccc(NC(=O)Cn2c3c(sc2=O)C2c4ccccc4OCC2CS3)cc1 (stereo unspecified)
    ., 17
24) O=C(CCc1cn(Cc2ccc(F)cc2)c2ccccc12)NCC1CCCO1 (stereo unspecified)
    0.1, 0
25) O=c1cc(CO)oc(CN2CCN(c3ccccc3F)CC2)c1O
    ., -25
26) COc1cc(/C=C2\SC(=S)N(C(C)C)C2=O)ccc1OCC(N)=O
    ., -18
27) O=S(=O)(c1ccc(Cl)cc1)N(CCc1ccccn1)c1ccccc1
    0.2, .
28) CCCCNCc1cccn1-c1ccccc1
    -2.5, 0
29) COCCNC(=O)c1ccc(Oc2ccccc2)cc1
    ., -9
30) Cc1nn(-c2ccccc2)nc1C(=O)Nc1ccccc1C(=O)NCC1CC1
    ., 5
31) O=C(OCc1nnc(-c2ccccc2)o1)c1cccnc1SCc1nnc(-c2ccccc2)o1
    ., 11
32) N#C/C(=C\N1CCOCC1)C(=O)Nc1ccc(F)c(Cl)c1
    ., 12
33) CCn1c(C(=O)O)c(CNCCc2ccccc2)c2ccccc21
    0.5, 13
34) Cc1c(C)c(C)c(CSCC(=O)NN)c(C)c1C
    0.7, .
35) COc1ccc(CCN(C)C(=O)c2ccc3c(c2)C(=O)N(Cc2ccco2)C3=O)cc1OC
    ., 9
36) O=c1[nH]c(Nc2nc3ccccc3[nH]2)nc2cc(Cl)ccc12
    ., -2
37) O=C1c2ccccc2C(O)N1Cc1ccccc1 (stereo unspecified)
    ., 4
38) N#Cc1c(SCC(=O)NC23CC4CC(CC(C4)C2)C3)sc2c(=O)[nH]c(=O)[nH]c12
    -2.0, 5
39) CC(=O)Nc1ccc(Nc2c3c(c(C#N)c4nc5ccccc5n24)CCC3)cc1
    0.8, -1
40) CCOc1cccc(C2Nc3ccccc3NC3=C2C(=O)CC(c2ccc(OC)c(OC)c2)C3)c1 (stereo unspecified)
    -11, .
41) CSc1ccc(Br)cc1
    -0.2, .
42) O=C(NCCSCc1ccco1)Nc1ccc(F)cc1F
    0.8, .
43) COc1ccc(CCN(Cc2nc3ccccc3c(=O)[nH]2)C(=O)c2ccco2)cc1
    -1.6, 6
44) CC1=C(C(=O)OC2CCCC2)C(c2cccc(F)c2F)CC(=O)N1 (stereo unspecified)
    ., 15
45) COc1cc(OC)c(C2Nc3c(C)cc(C)cc3-c3cc(C)nn32)cc1OC (stereo unspecified)
    ., -26
46) CSc1cccc(NC(=O)CSc2nncn3c2cc2occc23)c1
    ., -41
47) O=S1(=O)CCC(NC2CCS(=O)(=O)C2)C1 (stereo unspecified)
    2.5, 0
48) O=C1CCCC2=C1C(c1cccs1)Nc1ccccc1N2 (stereo unspecified)
    ., 8
49) COC(=O)c1ccc(Cn2nc(C(F)(F)F)cc2C)o1
    ., 13
50) COc1ccc(CCn2nnc3ccccc3c2=O)cc1OC
    -2.3, .

New compounds follow:
Values run as follows: MgrA DNA FP, Sa helicase inh
51) CCOC(=O)C1=C(c2ccccc2)N=C2SCC(=O)N2C1c1ccc(O)c(OC)c1 (stereo unspecified)
    -0.8, 17
52) C#CCNC(=O)Nc1ccc(C)cc1
    ., -14
53) O/N=C/c1cc(Cl)cc(Cl)c1
    ., -34
54) C/C(=N\NC(=O)COc1ccccc1C)c1ccccc1O
    ., 8
55) O=C1/C(=C/c2ccc3c(c2)OCO3)CCC/C1=C\c1ccc2c(c1)OCO2
    1.5, .
56) Oc1ccc(Br)c2cccnc12
    7.2, 16
57) Cc1ccc(C)c(CSCc2nc3ccccc3[nH]2)c1
    -0.4, 9
58) CSc1nc(N)n2nc(C)cc2n1
    0.5, .
59) O=C(COC(=O)c1cccc(I)c1)c1ccc(-n2nncc2-c2ccco2)cc1
    ., -12
60) CCN=C1SC(C(=O)Nc2ccc(Br)cc2)CC(=O)N1CC (stereo unspecified)
    -0.7, 5
61) CCCCn1c(SCC(=O)O)nc2ccccc21
    -2.6, 14
62) Cc1ccc2nc(NCc3ccc(C(=O)O)cc3)c(-n3nc(C)cc3C)nc2c1
    ., 17
63) CCN(CC)C(=O)C(C(=O)c1ccccc1)n1cc(Cl)ccc1=O (stereo unspecified)
    0.8, 6
64) Cc1ccc(C(=O)N/C(=C/c2ccccc2F)C(=O)N2CCCCC2)cc1
    -2.2, 16
65) CC(=O)N1C(NCc2ccccc2)CC(C)N1c1ccccc1 (stereo unspecified)
    -0.7, 7
66) CC1Cc2ccccc2N1S(=O)(=O)c1cnc[nH]1 (stereo unspecified)
    0.4, 11
67) O=c1[nH]c2ccccc2cc1/C=N/O
    ., -2
68) CCOC(=O)c1cnn(-c2ncnc3sc4c(c23)CCN(C(=O)OCC)C4)c1N
    ., 21
69) Fc1ccc(-c2csc(Nc3ccccc3Cl)n2)cc1
    -0.4, .
70) Cc1[nH]c2ccccc2c(=O)c1CN1CCOCC1
    ., -72

Record cards, as listed above.
Cc1[nH]c2ccccc2c(=O)c1CN1CCOCC1 in the list: MgrA DNA FP: .; Sa helicase inh: -72
CC(=O)N1C(NCc2ccccc2)CC(C)N1c1ccccc1 (stereo unspecified) in the list: MgrA DNA FP: -0.7; Sa helicase inh: 7

(list continues)
Values run as follows: MgrA DNA FP, Sa helicase inh
71) CCCCNC(=O)n1ccc(-c2nn(-c3ccc(F)cc3)ccc2=O)n1
    ., 15
72) N/C(=N\S(=O)(=O)c1cc(C(F)(F)F)cc(C(F)(F)F)c1)c1cccnc1
    2.1, .
73) O=S(=O)(NCCCN1CCOCC1)c1ccc2ccccc2c1
    ., -2
74) COc1ccc(N2C(=O)/C(=C\c3cn(C(C)=O)c4ccccc34)C(=O)NC2=S)cc1
    1.5, .
75) CN1CCC(c2cccs2)=N1
    0.5, .
76) Cc1cc2cc(CN3C(=O)c4ccccc4C3=O)ccc2[nH]1
    ., 5
77) CCOc1ccc(NC(=O)CN2CCN(CC)CC2)cc1
    -0.3, 6
78) O=C(c1c(F)cccc1F)N1CCN(c2ccc([N+](=O)[O-])cn2)CC1
    -2.7, .
79) O=C(CCc1nnc2ccc(NCc3ccccc3)nn12)N1CCCC1
    ., -4
80) CN(Cc1ccccc1)c1nc(-c2ccccc2)cs1
    3.4, -4
81) N#CCSCc1ccco1
    ., 19
82) COc1ccc(-c2noc(=O)n2Cc2ccccc2)cc1
    -16, 3
83) COc1ccc(/C=C2\SC(=O)N(CCC(=O)N3CCOCC3)C2=O)cc1OC
    -1.1, .
84) CC(Oc1ccc2c(c1)OCO2)C(=O)c1ccc(OC(F)F)cc1 (stereo unspecified)
    ., -2
85) O=C(O)CCCC(=O)N1CC(=O)Nc2ccccc21
    -2.1, -5
86) CCCN1Cc2cccc(-c3nc(C)c(C(=O)OCC)o3)c2C1=O
    ., 16
87) COc1ccc(OCC(=O)Nc2ncccc2C)cc1
    2.1, 9
88) Cc1csc(SCC(=O)c2ccc(O)cc2O)n1
    ., 5
89) Cc1cc2nnnn2c(N(C)S(=O)(=O)c2ccccc2)n1
    ., 8
90) Cc1ccc(N2CC(O)=C(c3nc4ccccc4s3)C2=N)c(C)c1
    6.7, 3
91) Cc1onc(-c2ccccc2Cl)c1C(=O)N1CCCCC1C (stereo unspecified)
    -3.5, 2
92) COc1ccc(Cl)c(N=C2NC(=O)/C(=C\c3cccnc3)S2)c1
    0.6, 9
93) Cc1ccc(SCC(=O)N(c2ccccc2)C(C)C)cc1
    -0.6, -8
94) CC(NCc1ccc2c(c1)OCO2)C(=O)Nc1cc(Cl)cc(Cl)c1 (stereo unspecified)
    ., -6
95) COc1ccc(CNC(=O)COC(=O)C2CC3C=CC2C3)cc1 (stereo unspecified)
    ., -9
96) CCOC(=O)NC(=S)c1cccn1C
    1.6, .
97) CCOC(=O)Cc1cc(C(=O)c2ccc(OC)cc2)sc1-c1ccc(OC)cc1
    0.6, -3
98) COC(=O)c1ccsc1NC(=O)c1cccs1
    ., 8
99) Cc1ncc(CSc2ccccn2)c(CO)c1O
    -0.4, .
100) O=C(NCCSc1nc2ccccc2o1)c1ccccc1
    -0.8, -18

Structures above that contain a cyano group, in the order listed:
Values run as follows: MgrA DNA FP, Sa helicase inh
15) N#Cc1cccc(NC(=O)Nc2ccc3c(c2)OCC(=O)N3Cc2ccccc2)c1
    1.6, 0
32) N#C/C(=C\N1CCOCC1)C(=O)Nc1ccc(F)c(Cl)c1
    ., 12
38) N#Cc1c(SCC(=O)NC23CC4CC(CC(C4)C2)C3)sc2c(=O)[nH]c(=O)[nH]c12
    -2.0, 5
39) CC(=O)Nc1ccc(Nc2c3c(c(C#N)c4nc5ccccc5n24)CCC3)cc1
    0.8, -1
81) N#CCSCc1ccco1
    ., 19

The listing continues.
Values run as follows: MgrA DNA FP, Sa helicase inh
101) CCOC(=O)c1c(-c2cccs2)csc1NC(=O)CN1CCC(C)CC1
    -0.9, 3
102) O=C(O)c1ccccc1-n1cnnn1
    ., 2
103) CC(=O)N1CC(c2cnc(-c3ccccc3)c(C)c2)C=C(C)C1c1ccccc1 (stereo unspecified)
    -2.0, -5
104) Cc1cccnc1/N=C/c1c(O)n(-c2ccccc2F)c(=O)c2ccccc12
    -1.8, -12
105) COc1cc(OC)c(OC)cc1/C=C/C(=O)N1CCN(C)CC1
    ., 19
106) Clc1ccc(CN2CCC(Cc3ccccc3)CC2)cn1
    -0.5, .
107) O=C(NNc1nc2c(F)cccc2s1)c1ccc(S(=O)(=O)N2CCCC2)cc1
    ., -4
108) O=C(NCc1n[nH]c(=O)c2ccccc12)c1ccco1
    ., -8
109) O=C(NCC(c1ccco1)N1CCc2ccccc2C1)c1ccccc1 (stereo unspecified)
    ., 6
110) Cc1cc(C)c(C#N)c(SCC(=O)n2nc(C)cc2C)n1
    ., 8
111) COc1cc(CN(C)C(=O)C2CCN(C(C)=O)CC2)ccc1OCc1ccccc1
    ., -9
112) CCN(C(=O)CSc1ccccn1)c1c(N)n(Cc2ccccc2)c(=O)[nH]c1=O
    ., -14
113) CNC(=O)c1cc2c(s1)CCCCCC2
    -0.5, 3
114) CCOc1ccc(OCC)c(NC(=O)CSCCc2ccccn2)c1
    ., 12
115) CSc1ccccc1C(=O)N1CC(C)OC(C)C1 (stereo unspecified)
    -0.7, 9
116) O=C1NC(=O)C(=Cc2ccc(N3CCCC3)cc2)C(=O)N1
    9.3, 1
117) O=C(/C=C/c1ccco1)N1C(=Nc2ccccc2)SCc2ccccc21
    ., 6
118) O=C(Sc1ccc(Cl)cc1)c1ccc(-c2cccs2)s1
    -2.2, .
119) COC(=O)c1ccc(COC(=O)Cc2n[nH]c(=O)c3ccccc23)o1
    ., -5
120) Cc1ccc(S(=O)(=O)NCc2c(C)nn(C)c2C)cc1
    ., 5
121) CCOC(=O)c1cc2c(ccn2-c2ccc(F)cc2)n1CC(=O)N1CCc2ccccc21
    -1.8, 13
122) O=C(COc1ccccc1)Nc1nc2ccc(Cl)cc2s1
    ., 10
123) CC(C)n1c(-c2ccccc2)nc(=S)c2c1CCCC2
    ., 14
124) N#CCc1nn(-c2ccccc2)c(N)c1C#N
    0.9, .
125) Cn1c(SCc2ccccc2)nnc1C1CCCN1S(C)(=O)=O (stereo unspecified)
    -1.0, 5
126) O=C(NC1CCCC1)c1csc2c1CCCC2
    ., -6
127) O=C1CC(c2coc3ccccc3c2=O)Sc2ccccc2N1 (stereo unspecified)
    -0.3, .
128) Cc1ccc(Nc2cnn(-c3nc4ccccc4o3)c(=O)c2Cl)cc1F
    ., 9
129) CN(C)C(=O)N1CCC(C(=O)N2CCC3(CC2)OCCO3)CC1
    -0.4, 11
